# LANA-H2B inh: blocks KSHV LANA binding to histone H2A/H2B; cell-free LANA-H2A/H2B peptide, fluorescence polarization; AID 2629; Q9QR71; inhibition, % (concentration not given with the values); 320,000 tested, 0.6% active; in the data active = inhibition mostly above about 10%, no sharp cut-off; inactive = mostly below about 6.7%;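 also: stock transfer was 7.5 nL into about 10 µL; 0% = median of vehicle wells and 100% = median of positive control wells; one replicate is shown; the record names a cut of 25% in any replicate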
# Ecoli growth: blocks Escherichia coli growth | OD600, 23 h; stronger effect = lower value | OD600 absorbance (no concentration beside the values) | 330,000 tested, 0.21% active | AID 1053175;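 active = OD600 absorbance below the run mean of sample wells minus 3.6 SD, in any replicate, cut at about 0.56 in these data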;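 also: stock transfer was 300 nL into about 60 µL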
# HNF4A DNA FP: change in binding of human HNF4 alpha to DNA. activity change, % at 10 µM. 360,000 tested, 0.3% active. P41235. HNF4a-FITC DNA binding, fluorescence polarization, 1 h; in the data active = activity change above about 30%, passing the limit was not always enough;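 also: controls were the assay level and a saturating level of protein; the project sought stronger binding though the title names inhibitors; some compounds called inactive have numbers as strong as hits; positive values seem to mean higher polarization but the record does not say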
# Target sequence (P41235 whole entry, looked up): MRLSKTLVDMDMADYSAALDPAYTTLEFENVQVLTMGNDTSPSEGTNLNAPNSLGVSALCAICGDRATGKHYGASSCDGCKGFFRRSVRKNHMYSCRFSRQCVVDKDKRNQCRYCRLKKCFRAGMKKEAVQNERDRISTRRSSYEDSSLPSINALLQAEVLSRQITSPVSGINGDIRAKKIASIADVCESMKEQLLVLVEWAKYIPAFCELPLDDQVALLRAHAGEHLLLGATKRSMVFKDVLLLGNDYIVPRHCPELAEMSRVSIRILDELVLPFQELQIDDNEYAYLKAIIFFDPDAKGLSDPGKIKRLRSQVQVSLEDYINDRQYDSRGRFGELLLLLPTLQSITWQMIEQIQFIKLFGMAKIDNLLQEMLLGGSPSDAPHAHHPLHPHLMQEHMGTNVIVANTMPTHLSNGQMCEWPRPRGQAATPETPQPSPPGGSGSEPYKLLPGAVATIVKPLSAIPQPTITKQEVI
# UCH37 inh: inhibitors of human deubiquitinating enzyme UCH37. inhibition, % (concentration not given with the values). AID 588478. Q9Y5K5. 330,000 tested, 0.33% active. purified proteasome/UCH37, Ub-AMC cleavage fluorescence;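 active = mean of two replicates above 20%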;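 also: 0% = compound-free wells with enzyme and 100% = wells lacking proteasome; stock transfer was 100 nL into about 20 µL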
# Target sequence (Q9Y5K5 whole entry, looked up): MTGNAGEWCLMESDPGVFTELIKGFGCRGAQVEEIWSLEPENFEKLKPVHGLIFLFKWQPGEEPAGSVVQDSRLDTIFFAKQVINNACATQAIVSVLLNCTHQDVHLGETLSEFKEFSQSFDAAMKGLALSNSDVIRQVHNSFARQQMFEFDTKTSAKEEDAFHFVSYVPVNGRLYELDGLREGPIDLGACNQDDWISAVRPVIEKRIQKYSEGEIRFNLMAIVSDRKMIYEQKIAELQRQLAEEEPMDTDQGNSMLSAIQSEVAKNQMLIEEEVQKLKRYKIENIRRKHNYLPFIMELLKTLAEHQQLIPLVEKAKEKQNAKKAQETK
#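 Material: Human UCH37 enzyme supplied as purified proteasome complex | Schedule: 30 min preincubation with enzyme, 25 min cleavage at room temperature | Detection: AMC fluorescence 355/460 nm | Measure: % inhibition of Ub-AMC cleavage fluorescence | Controls: Wells without proteasome as full block, compound-free enzyme plus substrate as uninhibited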
# ALR inh: blocks human ALR sulfhydryl oxidase activity; AID 485317; P55789; purified ALR, DTT oxidation, H2O2 HRP-luminol luminescence; 290,000 tested, 3.8% active; inhibition, % (concentration not given with the values);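 active = mean and each replicate at 75% or more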;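 also: stock transfer was 7.5 nL into about 7.5 µL; 0% = neutral wells and 100% = wells with inactivated enzyme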
# FGF22 binding: binders of recombinant human FGF22 by thermal shift; SYPRO orange fluorescence; percent of sucrose octasulfate shift, DMSO zero; AID 651658; calls only at 9.99 µM; Q9HCT0; 340,000 tested, 1.5% active;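 active = melting point raised past a set limit in the mean and every replicate; three in four hits are not shown here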
# Target sequence (Q9HCT0 whole entry, looked up): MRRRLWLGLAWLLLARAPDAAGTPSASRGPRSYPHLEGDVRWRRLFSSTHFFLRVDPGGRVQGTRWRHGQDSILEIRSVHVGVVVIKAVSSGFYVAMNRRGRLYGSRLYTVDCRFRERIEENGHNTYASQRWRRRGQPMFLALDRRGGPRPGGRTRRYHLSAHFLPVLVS
# B2AR ag: activates human beta-2 adrenergic receptor causing internalization | P07550 | Am2.2-beta2AR cells, FAP receptor internalization, flow cytometry; reference of the scale not given here | response, % (concentration not given with the values) | 340,000 tested, 0.43% active | AID 504454;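 active = response above a set limit, near 3 SD of response in nonfluorescent compounds, cut at about 42% in these data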;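 also: stock transfer was 100 nL into about 11 µL; a reference agonist was the positive control; negative values mostly stem from fluorescent compounds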
# Starred values were filed as active, the others as inactive; i = inactive; x = not tested or not shown. A portion of the library; rates above refer to the full screens.
LANA-H2B inh	Ecoli growth	HNF4A DNA FP	SMILES	UCH37 inh	ALR inh	FGF22 binding	B2AR ag
2.0	0.73	-1.3	COc1cc(C(=O)COC(=O)CNC(=O)C2CCCCC2)cc(OC)c1OC	3.0	31	x	0
-2.3	0.7	2.4	CC1=C(C(=O)OCc2ccccc2)C(c2ccsc2)C(C#N)=C(N)O1 (centres undefined)	1.8	14	x	0
0.9	0.77	-0.8	COC(=O)c1ccc(NC(=O)C2CC2)o1	-1.5	4	x	2
0.8	0.69	2.3	COc1cccc(CNC(=O)c2ccc(CS(=O)c3ccccc3)o2)c1 (centres undefined)	0.2	-3	i	-3
-5.9	0.65	7.5	CCOc1ccccc1N1CCN(C(=S)NCc2ccccc2)CC1	2.3	x	i	0
x	0.66	-3.4	CCOC(=O)C1=C(COC(=O)c2ccc(C)c(S(=O)(=O)N3CCOCC3)c2)NC(=O)NC1C (centres undefined)	0.6	x	i	1
-4.0	0.76	-0.8	C=CCc1ccc(OC(=O)c2ccccc2)c(OC)c1	2.6	-6	i	7
-0.1	0.68	2.1	O=C(CCCc1ccccc1)Nc1nnc(C(F)(F)F)s1	6.0	-2	i	1
2.3	0.66	-1.2	COc1cccc(NC(=O)NC2CCCCCCC2)c1	5.0	5	i	-3
-1.6	0.71	-1.9	Cc1c(C(=O)Nc2nc3ccccc3[nH]2)oc2c(Cl)cccc12	-9.8	-12	x	5
5.6	0.77	-3.8	O=C(NCc1ccccc1)c1onc(CS(=O)(=O)c2ccccn2)c1C(=O)NCc1ccccc1	3.1	-6	i	-6
1.7	0.7	0.0	CCOC(=O)N1CCN(c2cc(C)c(C(C)=O)cc2F)CC1	0.5	-6	i	2
x	0.71	-9.8	O=C1C=CC(=O)N1c1cccc2cccnc12	1.7	x	i	0
x	0.67	0.0	CN(CC(=O)Nc1ccc(Cl)c(C(F)(F)F)c1)C(=O)C1CCN(C(=O)c2ccc(Cl)cc2)CC1	5.4	x	i	2
-1.3	x	-3.2	Oc1ccc(/C=N/Nc2nn3cnnc3c3ccccc23)cc1	x	60	i	-3
-3.7	0.75	-1.4	O=C(O)c1cc(-c2ccccc2Cl)n[nH]1	2.0	-4	x	11
-1.3	0.64	32	O=C(Nc1cc(Cl)ccc1N1CCOCC1)c1ccc(N2CCCCC2)c([N+](=O)[O-])c1	2.0	-10	i	-1
3.4	0.67	4.9	N/C(=N\OC(=O)COc1ccc(Cl)cc1Br)c1cccnc1	0.9	-3	i	3
-5.6	0.7	8.0	Cc1ccc(C2=NNC(C(O)C(O)C(O)C(O)CO)S2)cc1 (centres undefined)	0.1	-6	x	-3
-6.5	x	-6.4	CCC1COCCS(=O)(=O)N1Cc1ccc(C)cc1 (centres undefined)	0.6	0	x	1
0.4	0.7	-0.4	COCCCNC(=O)c1ccc(S(=O)(=O)c2ccc(C)cc2)c(NC(C)=O)c1	0.1	x	i	-6
-4.7	0.71	7.0	O=C(CN1C2=NCCN2c2ccccc21)c1ccco1	-2.4	7	x	-5
0.7	0.67	3.4	Nc1nnc(SCCOc2ccccc2)s1	0.5	-1	i	-3
1.0	0.69	-0.9	Cc1ccccc1N(C(=O)CS(=O)CC(=O)Nc1ccc(F)cc1)C(C)C(=O)NC(C)(C)C (centres undefined)	0.0	-14	x	1
-0.8	0.7	-3.0	Cc1cccc(NC(=O)C2(c3cccs3)CCOCC2)n1	2.1	2	x	1
2.1	0.67	-0.9	O=C(CN1CCCCCC1=O)N1CCN(S(=O)(=O)c2cccs2)CC1	-1.5	5	i	-3
x	0.74	0.1	Cc1ccc(NC(=O)CCn2nc(C)cc2C)c(C)c1	5.8	x	x	2
-1.8	0.73	-1.1	CCOC(=O)c1c(NC(=O)C2C3CCC(O3)C2C(=O)O)sc(C)c1-c1ccc(C)cc1 (centres undefined)	1.8	7	x	-7
-0.3	0.66	-2.6	COc1ccc(N2CCN(C(=N)/C(C(C)=O)=C(\C)O)CC2)cc1	1.0	4	x	22
0.8	0.66	-0.7	Cc1ccccc1NC(=O)c1ccc(S(=O)(=O)N2CCCC2)cc1	0.2	x	i	5
1.6	0.71	-2.6	COn1c(SCC(=O)N(C)C)nc2ccccc2c1=O	-0.4	-9	x	-6
-0.3	0.69	3.2	O=C(Cn1cnc2nc3n(c2c1=O)CCC3)NCc1ccccc1	0.4	-1	i	-3
4.0	0.72	-1.3	C=C(C)COc1ccc(-c2n[nH]c(C)c2-c2ccc(OC)cc2)c(O)c1	0.4	x	x	53*
4.4	0.72	-2.6	O=C(c1cccc(S(=O)(=O)N2CCCC2)c1)N1CCN(c2ncccn2)CC1	-6.8	-3	i	6
-2.4	0.71	-1.1	COc1ccc(S(=O)(=O)Nc2ccc3c(c2)n(C)c(=O)n3C)cc1	0.2	x	i	-2
6.6	0.66	0.8	COc1ccc(N2CCN(S(=O)(=O)CCNC(=O)C3CC(=O)N(c4ccccc4)C3)CC2)cc1 (centres undefined)	-0.4	-7	i	1
3.2	0.71	-2.1	Cc1ccccc1NC(=O)Cn1nnc2ccccc21	0.4	-9	x	5
1.7	0.68	2.3	CC(C)OCCCNC(=O)C1CCC(CNS(=O)(=O)c2cccc3nsnc23)CC1 (centres undefined)	2.5	x	x	4
-3.0	0.68	3.0	O=C(NCc1cccc(F)c1)C1CCN(C(=O)c2sccc2-n2cccc2)CC1	-2.5	-3	i	-3
4.9	0.84	19	COc1cc(SC#N)ccc1N=Cc1c(C)[nH]n(-c2ccc(Cl)cc2)c1=O	7.1	66	x	10
2.4	0.7	-0.3	Cc1noc(C)c1S(=O)(=O)N1CCN(Cc2ccc3c(c2)OCO3)CC1	0.2	-4	i	4
-3.2	0.73	2.5	Cc1cccc(N=C2NC(=O)/C(=C/C=C/c3ccco3)S2)c1	5.8	x	i	3
2.0	0.73	2.0	Cc1nn(Cc2ccc(F)cc2)c(C)c1NC(=O)c1cnn2c1NC(c1ccccc1)CC2C(F)(F)F (centres undefined)	0.0	-3	i	0
-1.9	0.74	2.1	CCCCOC(=O)Nc1ccc(S(=O)(=O)Nc2cc(C)nc(C)n2)cc1	5.4	-5	i	-1
6.4	0.68	0.8	Cc1c(C(c2cccc(O)c2)c2c(C)n(C)n(-c3ccccc3)c2=O)c(=O)n(-c2ccccc2)n1C	2.4	2	x	-16
-1.7	0.68	2.9	O=C(CSc1nccc(-c2cccs2)n1)Nc1ccccc1	7.1	-3	i	4
1.9	0.7	-2.8	Cc1ccc(C(=O)O)cc1-n1c(=O)n(Cc2ccccc2)c(=O)c2[nH]cnc21	2.9	-1	i	9
4.0	0.64	-2.6	COc1cc(Br)cc(C2C3=C(CCCC3=O)N(c3ccc(F)cc3)C3=C2C(=O)CCC3)c1O	1.0	-15	x	2

# Reprinted from the part before: five entries; new compounds follow.
LANA-H2B inh	Ecoli growth	HNF4A DNA FP	SMILES	UCH37 inh	ALR inh	FGF22 binding	B2AR ag
-1.9	0.74	2.1	CCCCOC(=O)Nc1ccc(S(=O)(=O)Nc2cc(C)nc(C)n2)cc1	5.4	-5	i	-1
6.4	0.68	0.8	Cc1c(C(c2cccc(O)c2)c2c(C)n(C)n(-c3ccccc3)c2=O)c(=O)n(-c2ccccc2)n1C	2.4	2	x	-16
-1.7	0.68	2.9	O=C(CSc1nccc(-c2cccs2)n1)Nc1ccccc1	7.1	-3	i	4
1.9	0.7	-2.8	Cc1ccc(C(=O)O)cc1-n1c(=O)n(Cc2ccccc2)c(=O)c2[nH]cnc21	2.9	-1	i	9
4.0	0.64	-2.6	COc1cc(Br)cc(C2C3=C(CCCC3=O)N(c3ccc(F)cc3)C3=C2C(=O)CCC3)c1O	1.0	-15	x	2
-5.1	0.66	0.4	NC(=O)c1ccsc1NC(=O)c1ccco1	6.5	x	i	1
0.0	0.71	-1.4	CCN1CCN(C(=O)C(C)Nc2cc(Cl)c(OC)cc2OC)CC1 (centres undefined)	2.5	-53	i	1
-9.7	0.7	3.3	CCc1ccc(NC(=O)C2C3/C=C\CCCCC32)cc1 (centres undefined)	-2.1	-4	x	13
-0.1	0.65	-1.9	O=C(NC1CCCC1)C(=O)N(Cc1cccnc1)C(C(=O)NCC1CCCO1)c1ccco1 (centres undefined)	5.6	0	i	-3
5.3	0.72	-1.3	CCCC(=O)NC(Nc1ccc(S(=O)(=O)Nc2cc(C)on2)cc1)(C(F)(F)F)C(F)(F)F	4.7	8	x	-4
3.8	0.66	-3.3	CCOC(=O)C1CCN(C(=O)CSc2ccccc2Cl)CC1	2.8	-8	i	7
-9.7	0.71	-3.5	CCOC(=O)N1CCN(C(=O)CSCC(=O)Nc2nc(-c3ccccc3)cs2)CC1	-1.9	x	x	5
1.1	0.69	3.9	Cc1c(C(=O)NCc2ccc3c(c2)OCO3)oc2ccc(Br)cc12	3.0	8	x	-6
5.3	0.63	-0.7	Cc1cc(C)n(-c2nc3c(c(=O)[nH]c(=O)n3C)n2CC(O)COc2ccccc2C)n1 (centres undefined)	-0.1	-9	x	4
2.9	x	-2.6	CCOc1ccccc1C(=O)N/N=C/c1coc2ccc(C)cc2c1=O	x	72	i	22
x	0.68	-5.2	CCOC(=O)C1CCCN(C(=O)C(CCSC)NC(=O)COc2ccccc2)C1 (centres undefined)	-1.0	x	i	2
1.6	0.66	0.7	CN1C(=O)/C(=C/c2ccc(OCc3ccc(F)cc3)cc2)N(C)C1=S	4.1	-14	i	1
0.2	0.7	1.9	O=C(NCCC1=CCCCC1)c1coc(=O)c(Br)c1	6.2	x	x	17
8.6	0.67	5.0	Cc1c(C(=O)NCCNc2ncc(C(F)(F)F)cc2Cl)cccc1[N+](=O)[O-]	6.0	x	i	-11
3.7	0.71	-2.0	CCOC(=O)C1CCN(C(=O)CSc2c3c(nc4ccccc24)CCC3)CC1	4.0	-6	i	5
7.0	0.65	-0.1	CCN(CC)c1ccc(CN2CCC(C(=O)NCc3ccc(C)cc3)CC2)cc1	4.5	82*	i	5
7.8	0.73	2.1	COc1cc(NC(=O)Cc2nn(C)c(=O)c3ccccc23)cc(OC)c1OC	2.8	-3	i	13
0.2	x	1.8	O=C(CCCOc1ccc(Cl)cc1Cl)N/N=C\C1CCCCC1	x	-2	i	-2
4.8	0.67	2.2	O=C1C2C3C=CC(C3)C2C(=O)N1c1ccc2c(c1)OCO2 (centres undefined)	-1.8	-15	x	-1
1.7	0.7	1.4	CCOC(=O)N1CCN(C(=O)NC2CCCCC2)CC1	3.6	x	x	-4
1.2	0.68	4.2	O=c1[nH]n(-c2ccc(Cl)cc2)c2ncccc12	-2.1	99*	x	8
1.0	0.67	0.1	CC(C(=O)Nc1sc2c(c1C(=O)NCc1ccco1)CCCC2)N1C(=O)c2ccccc2C1=O (centres undefined)	2.5	-1	x	0
0.4	0.66	2.1	CC1CCCCC12NC(=O)N(CC(=O)NCCc1c[nH]c3ccccc13)C2=O (centres undefined)	2.7	8	i	0
-0.3	0.69	-0.4	CSc1cccc(NC(=O)COc2cccc3ccccc23)c1	5.4	-8	x	-2
2.0	0.69	3.7	Cc1cc(C)c(C(=O)N2CCC(N3CCC(C(=O)NC(C)C)CC3)CC2)o1	-13	-5	i	-1

# Whole records, looked up by structure. Values in the order: LANA-H2B inh | Ecoli growth | HNF4A DNA FP | UCH37 inh | ALR inh | FGF22 binding | B2AR ag
# Cc1cccc(N=C2NC(=O)/C(=C/C=C/c3ccco3)S2)c1 as listed: -3.2 | 0.73 | 2.5 | 5.8 | x | i | 3
# Cc1c(C(=O)Nc2nc3ccccc3[nH]2)oc2c(Cl)cccc12 as listed: -1.6 | 0.71 | -1.9 | -9.8 | -12 | x | 5
# Cc1noc(C)c1S(=O)(=O)N1CCN(Cc2ccc3c(c2)OCO3)CC1 as listed: 2.4 | 0.7 | -0.3 | 0.2 | -4 | i | 4

# Source: PubChem (several laboratories)
